Screens from PubChem.
Sfp PPTase inh – qHTS Assay for Inhibitors of Bacillus subtilis Sfp phosphopantetheinyl transferase (PPTase); Potency, µM, for inactives: max response, negative = inhibition, usual class: inhibitors; Biochemical Sfp PPTase activity, qHTS; 3.5% of 310,000 active; 4'-phosphopantetheinyl transferase ffp (Bacillus subtilis), Q9F4F7; AID 1490, 2009; active means well fitted inhibition curve with a large enough effect; inconclusive means small, poorly fitted or top-dose-only effect, or another doubt; inactive means no such curve, though single readings can be large or run the other way;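 further: the enzyme is Sfp with the accession as filed and its product quenches rhodamine fluorescence; potency means the concentration at half of the fitted maximal effect; 0% = enzyme reaction without inhibitor and -100% = no enzyme wells; top concentration of the series not given in the record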
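Compounds were incubated with enzyme (final 15 nM) for 15 min at room temperature before substrate addition started the reaction. Fluorescence at 525 nm excitation, 598 nm emission was recorded immediately and after 30 minutes.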
TRPV1 potentiator – HTS Assay for Compounds that Act as Potentiators of the Vanilloid Receptor 1. Transient receptor potential cation channel subfamily V member 1 (Homo sapiens), Q8NER1. TRPV1-expressing cells, Fluo-8 calcium influx, capsaicin EC20 potentiation; host cell line not named in the record; control for the full effect not named in the record. potentiation, % at 8.33 µM. 0.02% of 320,000 active. AID 540277, 2011; active means potentiation above 80%; inconclusive means 30% to 80%; inactive means below 30%; further: 0% is about no effect
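TRPV1-expressing cells were cultured overnight at 35.5C and loaded with Fluo-8 calcium dye for 40 to 90 min at room temperature. After a 10 s baseline, compound was added and calcium influx was read kinetically for 3 min (ex 480/em 520 nm).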
gsp antagonist – qHTS for Antagonists of gsp, the Etiologic Mutation Responsible for Fibrous Dysplasia/McCune-Albright Syndrome: qHTS | 0.4% of 340,000 active | Potency, µM (series often up to 76.9 µM), without a hit: top-dose activity change, negative = inhibition, actives largely listed as inhibitors | AID 624288, 2012 | gsp-mutant cells, cAMP HTRF, 30 min; control for the full effect not named in the record; active = falling curve of any shape with a large fitted effect; inconclusive = falling curve, mostly with a smaller effect; inactive = flat or rising curve; cell line not stated here;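 further: intracellular cAMP measured with PDE inhibitor Ro 20-1724 present during compound exposure; potency means the concentration at half of the fitted maximal effect; on the % scale 0 is the no-effect control and ±100 the full control effect; nearly all actives have a fitted effect of over 65% in size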
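G418-selected cells were plated in DMEM/10% FBS for 16-24 h at 37C, then treated with compounds plus the PDE inhibitor […] (300 uM solution added) for 30 min at 37C. Intracellular cAMP was measured by HTRF after 30 min lysis at room temperature.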
TRPML1 inh – qHTS for Inhibitors of the Human Mucolipin Transient Receptor Potential 1 (TRPML1). activity change, negative = inhibition, % (test concentration not listed). Mucolipin-1 (Homo sapiens), Q9GZU1. TRPML1-inducible cells, Ca2+ dye fluorescence, FDSS; hits give low values; inhibition of EC80 agonist-evoked calcium signal. 0.02% of 390,000 active; in the data active means activity change below about -50%; inconclusive means about -30% to -50%; inactive means above about -30%;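 further: stimulus is agonist 54-4 at its EC80 concentration; on the % scale 0 is the no-effect control and ±100 the full control effect; compound concentration not given in the record; the text of the record puts the active cut at -80%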
Target sequence (Q9GZU1 whole entry, looked up): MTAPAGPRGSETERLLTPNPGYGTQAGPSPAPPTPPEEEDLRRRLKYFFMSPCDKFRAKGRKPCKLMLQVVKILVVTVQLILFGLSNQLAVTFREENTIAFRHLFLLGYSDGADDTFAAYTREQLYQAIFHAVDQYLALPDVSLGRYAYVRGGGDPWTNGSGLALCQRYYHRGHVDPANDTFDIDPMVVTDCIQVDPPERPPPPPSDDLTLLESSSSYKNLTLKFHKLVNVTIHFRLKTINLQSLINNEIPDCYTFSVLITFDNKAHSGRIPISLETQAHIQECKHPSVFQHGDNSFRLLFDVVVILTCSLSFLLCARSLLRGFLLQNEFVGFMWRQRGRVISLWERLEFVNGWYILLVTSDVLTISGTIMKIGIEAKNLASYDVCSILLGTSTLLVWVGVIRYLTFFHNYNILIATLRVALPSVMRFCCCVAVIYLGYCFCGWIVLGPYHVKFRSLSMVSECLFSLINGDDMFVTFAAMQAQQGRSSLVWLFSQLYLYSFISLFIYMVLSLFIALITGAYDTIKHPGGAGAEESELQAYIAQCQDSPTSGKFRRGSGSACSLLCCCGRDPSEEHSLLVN
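TRPML1-DL cells, Tet-induced overnight (~16 h, 37 °C) at 1,500 cells/well, were loaded with Ca8 no-wash dye plus quencher for 45-90 min at room temperature. Compounds were pinned during FDSS kinetic reading; agonist 54-4 at EC80 (4 uM final) then added.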
gsp ag – qHTS for Agonist of gsp, the Etiologic Mutation Responsible for Fibrous Dysplasia/McCune-Albright Syndrome: qHTS | AID 624287, 2012 | Potency, µM (titrated, usually from 76.9 µM), inactives show at the highest dose activation (cAMP increase), hits mostly activators | gsp mutant cells, cAMP HTRF, 30 min; control for the full effect not named in the record | 0.13% of 340,000 active; active = well fitted activation curve with a large enough effect; inconclusive = small, poorly fitted or top-dose-only effect, or another doubt; inactive = no such curve, though single readings can be large or run the other way; cell line not stated here;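 further: phosphodiesterase inhibitor Ro 20-1724 added with compounds to block cAMP breakdown; potency means the concentration at half of the fitted maximal effect; nearly all actives have a fitted effect of over 60% in size; about a fifth of the inactives were tested at one dose only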
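Cells in DMEM/10% FBS with G418 were pretreated with compounds in DMSO plus […] (300 uM stock) for 30 min at 37C. cAMP was measured by HTRF (cAMP-d2 plus anti-cAMP antibody-K) after 30 min at room temperature.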
ClpP mod – qHTS Assay for Activators of ClpP. Potency, µM (doses to about 57.5 µM), inactives show at the top dose activity change, negative = active. purified B. subtilis ClpP, FRET peptide cleavage, 20 min. 1.9% of 340,000 active; active = well fitted falling curve with a large enough effect; inconclusive = small, poorly fitted or top-dose-only effect; inactive = no such curve, though single readings can be large or run the other way; further: potency means the concentration at half of the fitted maximal effect; the source files actives as falling curves though it sought activators and does not explain the sign; nearly all actives have a fitted effect of over 65% in size; many hits overshoot -100%
Target sequence (P80244 whole entry, looked up): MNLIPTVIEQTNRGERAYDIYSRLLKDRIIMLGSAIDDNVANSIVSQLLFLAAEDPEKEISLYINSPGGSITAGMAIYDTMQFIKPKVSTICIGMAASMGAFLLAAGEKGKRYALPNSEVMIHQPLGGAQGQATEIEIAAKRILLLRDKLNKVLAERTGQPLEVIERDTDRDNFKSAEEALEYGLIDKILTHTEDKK
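Purified B. subtilis ClpP, 10 microg/mL final in Tris/HCl pH8 with KCl, BSA, glycerol and Tween-20, cleaved an Abz/nitrotyrosine-quenched decapeptide. Fluorescence (ex 320, em 430) was read at 0 and 20 min at room temperature. Delta was normalized to 5.8 microM ADEP and DMSO/no-enzyme controls.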
Menin MLL FP FL – qHTS Assay for Inhibitors Targeting the Menin-MLL Interaction in MLL Related Leukemias: Competition With Fluorescein Labeled MLL-derived Peptide; Fluorescence polarization, fluorescein-MLL peptide displacement from menin; FP activity change, % at 61.4 µM; 290,000 tested, under 10 active; inconclusive = falling polarisation curve, or a change in total fluorescence; inactive = total fluorescence flat and polarisation flat or rising; no compound was filed as active; the % refers to the polarisation; negative = inhibition;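 further: % of control where 0% means no effect; inhibitors lower the polarisation; unlabelled MLL peptide was the positive control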
Active calls of the source: *; ? = inconclusive; · = no result given; & = joins results of further samples; [ ] = remark or other dose.

SMILES | Sfp PPTase inh | TRPV1 potentiator | gsp antagonist | TRPML1 inh | gsp ag | ClpP mod | Menin MLL FP FL
O=C(Nc1ccc(Oc2ccc(NC(=O)Nc3ccc([N+](=O)[O-])cc3)cc2)cc1)Nc1ccc([N+](=O)[O-])cc1 | 16% | -5 | -6% | -10 | 16%[15.4 µM] | · | 7.6
CCOC(=O)c1c(O)cc(OC)cc1CCc1ccccc1 | · | · | -7% | 9 | · | 1.4% | ·
COC(=O)C1=C(C)NC(=O)/C1=C\c1ccc2c(c1)OCO2 | 4% | 29 | 4% | 35 | 13% | 0.1% | 9.5
Fc1cccc(Cl)c1CNC(c1ccccc1)c1ccccc1 | 4% | 0 | -11% | -2 | -55%[inhibitor] | -2.7% | 9.6
C=CCN1[C@@H](Cc2ccccc2)COCCS1(=O)=O | · | · | 2% | 29 | · | 0.5%&-1.1% | ·
Cc1cc2nc3s/c(=C/c4ccc(-c5ccccc5C(=O)O)o4)c(=O)n3c2cc1C | 79µM* | 20 | 0% | 2 | -49%[inhibitor] | 1.4% | ?
C/C(=N\NC(=O)CSc1nc2ccccc2s1)c1ccco1 | 4% | 14 | 19% | -1 | -2% | -2.7% | 3.1
CN(C)c1ncnc2c1ncn2-c1ccccc1 | · | · | 6% | -12 | 2% | -11% | ·
CCCCCn1nc(C)c(/C=N\NC(=O)c2cc(C)oc2C)c1C | -2% | -15 | -11% | 13 | 1% | -0.6% | 1.7
CCCNc1nc2c(c(=O)[nH]c(=O)n2C)n1CCOc1ccccc1 | 19% | 13 | 13% | -2 | 1% | · | -3.1
COc1ccc(C2C(C(=O)Nc3ccccc3)=C(C)Nc3nc(CCCO)nn32)cc1 (configuration not stated) | 27% | 5 | 6% | -9 | -49%[inhibitor] | -2.7% | 2.3
Cc1ccc(/C=N/NC(=O)c2nnn(-c3nonc3N)c2CN(C)C2CCCCC2)cc1 | 11% | 5 | 3% | 1 | -20% | 1.1% | -0.1
Cc1c(NC(=O)COC(=O)Cc2ccc(Br)cc2)c(=O)n(-c2ccccc2)n1C | · | -2 | 7% | 1 | -1% | 0.1% | ·
COCCNC(=S)N/N=C(\C)c1cccc([N+](=O)[O-])c1 | -1% | 0 | -1% | -11 | -3%[15.4 µM] | 0.1% | 3.0
O=C(Cc1ccc(S(=O)(=O)N2CCOCC2)s1)N1CCN(c2ccc(C(F)(F)F)cc2[N+](=O)[O-])CC1 | · | -3 | -15% | -8 | -29% | -1.7% | ·
CCOC(=O)C1=C(C)N(C)C(=S)NC1c1cccc(Cl)c1Cl (configuration not stated) | 12% | 8 | 1% | -1 | -6% | -2.0% | -6.3
O=C(NC(=S)Nc1ccc(-c2nc3ncccc3o2)cc1)c1ccccc1F | -23% | 9 | -32% | 7 | -5%[15.4 µM] | · | -1.2
O=C1CN(C(=O)COC(=O)CNC(=O)c2ccc(Cl)cc2)c2ccccc2N1 | 20% | -3 | -3% | 7 | -6%[15.4 µM] | · | -3.8
COc1cccc(-c2cc(C(F)(F)F)nc(-n3ccc([N+](=O)[O-])n3)n2)c1 | -6% | -5 | 0% | ? | -13% | -1.1% | -0.2
CCOCCn1c(N2CCN(c3ccccc3)CC2)nc2c1c(=O)n(C)c(=O)n2C | 17% | -42 | -8% | 5 | 32% | 0.2% | 4.3
O=S(=O)(CCN1CCOCC1)c1ccc(Cl)cc1 | · | · | -1% | 2 | -5%[15.4 µM] | -1.0% | ·
CC1CN=C(NC(=O)c2cccc([N+](=O)[O-])c2)S1 (configuration not stated) | 19% | -4 | 2% | -16 | 0% | 0.0% | -7.2
O=C(Nc1ccc(N2C(=O)c3cccc4cccc(c34)C2=O)cc1)c1ccc(N2CCCCC2)c([N+](=O)[O-])c1 | 8% | 13 | 6% | 50 | 5% | -1.4% | 7.4
Cc1cccc(NC(=O)CSc2nnc3ccc(-c4ccccn4)nn23)c1 | · | -2 | -1% | 12 | 9%[15.4 µM] | · | ·
O=C(/C=C/c1cccc([N+](=O)[O-])c1)NCCN1C(=O)S/C(=C\c2ccc(F)cc2)C1=O | -60% | 3 | -5% | 24 | -35%[inhibitor] | -3.2% | 4.8
COc1cccc(N2CCN(c3ccc(S(=O)(=O)N4CCCC4)cc3)CC2)c1 | 13% | 4 | -2% | -4 | -51% | -5.2% | 0.9
Cn1cc(Br)c(C(=O)NNC(=O)c2ccccc2)n1 | 11% | 1 | 10% | 0 | -21% | -1.4% | -0.6
Cc1ccccc1NC(=O)C(=O)NCCc1ccccc1 | 11% | 13 | 12% | -13 | 0%[15.4 µM] | -3.8% | 8.1
Cc1cc2nc(C)n(CCCNC(=O)Nc3ccc(F)cc3)c2cc1C | 11% | 9 | 2% | -6 | -9% | 0.3% | 2.0
COc1ccc(NC2CCCN(C(=O)c3ccc(OC)cc3OC)C2)cc1 (configuration not stated) | -6% | 6 | -27% | 5 | 2% | -4.0% | 1.8
O=C(NC1(Cc2ccc(O)cc2)CCCCC1)c1ccccc1 | 16% | 4 | -6% | -7 | -7% | · | -0.5
CCOC(=O)c1cc(C)sc1NC(=O)CCC(=O)O | -3% | ? | -20% | -7 | -11% | -6.8% | 1.5
CCCCn1c(=O)[nH]c2ccccc21 | 2% | -14 | 5% | 3 | -4% | 1.3% | 3.9
COc1cccc2cc(C(=O)Nc3cccc(C)n3)c(=O)oc12 | 13% | -16 | 11% | 18 | 1% | 0.0% | 0.3
O=[N+]([O-])c1ccc(Nc2c3ccccc3nc3ccccc23)cc1 | 6% | 3 | -26% | -5 | -9%[15.4 µM] | · | -0.8
CC(C)COC(=O)Nc1nnc(SCc2ccccc2F)s1 | 12% | 6 | 3% | -2 | 1% | 0.0% | 2.5
Cc1cc2c(cc(C(=O)OC(C(=O)NCC3CCCO3)C(C)C)n2C)o1 (configuration not stated) | 15% | -7 | -13% | -6 | -40%[inhibitor] | 0.1% | 2.6
Cc1ccc(S(=O)(=O)N2CCN(C(=O)c3ccccc3OCc3c(C)noc3C)CC2)cc1 | · | -16 | -12% | -12 | ? | 0.4% | ·
CCOC(=O)NC(N(O)c1cccc(Cl)c1)C(Cl)(Cl)Cl (configuration not stated) | 11µM* | 6 | 3% | 45 | 15% | · | 3.4
CC(C1CC2CCC1C2)n1c(-c2cccs2)n[nH]c1=S (configuration not stated) | -4% | -2 | ? | 20 | 6% | · | -1.9
O=C(CSc1n[nH]c(-c2ccncc2)n1)Nc1ccccc1 | 3% | 3 | -11% | 14 | 30% | · | -0.7
COc1ccccc1OCCNC(=O)c1cc(F)c(F)cc1Cl | ? | -1 | 12% | -9 | -46%[inhibitor] | 0.3% | 1.9
COc1ccc(C(=O)Nc2c(Cl)cc(Cl)cc2C(=O)NCc2ccco2)cc1 | -1% | 13 | -1% | 4 | 29% | -0.9% | -0.3
COc1cc(C(=O)Nc2ccc(C)cn2)ccc1OCC(=O)N1CCOCC1 | · | 9 | -4% | -9 | 29% | 1.3% | ·
CSC(=NC#N)N1CCN(c2c(C)cccc2C)CC1 | -7% | 12 | 3% | 61 | -8%[15.4 µM] | · | -2.0
CC(=O)Nc1ccc(SC[C@H](C)CN2CC[C@H](C(C)(C)C)CCC2=O)cc1 | · | -7 | -12% | -8 | · | 0.4%&-0.7% | ·
CCn1nc(NS(=O)(=O)c2cccc3nonc23)c2cc3ccc(C)cc3nc21 | 2% | 16 | ? | -2 | 4% | -4.2% | ·
CN1CCN(C(=O)c2ccccc2NC(=O)c2cccs2)CC1 | 10% | 0 | 8% | 14 | -12% | -1.1% | 1.5
C[C@@H]1CCCCO[C@@H](CN(C)C(=O)Cc2ccccc2)[C@@H](C)CN([C@H](C)CO)C(=O)c2cc(N(C)C)ccc2O1 | · | · | · | -10 | 7% | -3.7% | ·
CN(C)C(=O)CCC(=O)N1CCCC(N2CCN(c3cccc(C(F)(F)F)c3)CC2)C1 (configuration not stated) | 9% | -12 | -8% | -12 | 2% | · | -0.2
New compounds follow:
SMILES | Sfp PPTase inh | TRPV1 potentiator | gsp antagonist | TRPML1 inh | gsp ag | ClpP mod | Menin MLL FP FL
CC1CCOC2(O1)C(=O)N(CN1CCN(c3cccc(Cl)c3)CC1)c1ccccc12 (configuration not stated) | 14% | 3 | 5% | 18 | -13% | 0.4% | 3.6
Cc1cccc(NC(=O)C2CCN(S(=O)(=O)c3ccc4c(c3)OCCO4)CC2)n1 | · | -1 | -8% | 24 | -4%[15.4 µM] | -3.9% | ·
COC1C(CO)OC(n2c3c(Cl)cccc3c3c4c(c5c6cccc(Cl)c6[nH]c5c32)C(=O)NC4=O)C(O)C1O (configuration not stated) | · | · | 28% | 3 | ? | 0.1% | ·
S=c1nc(-c2ccccc2)n(CCN2CCOCC2)c2c1CCCC2 | 0% | -13 | 3% | -4 | 21% | 0.6% | 1.0
COc1ccc(NC(=O)COc2ccc3c(c2)OCO3)cc1 | 13% | -16 | -1% | 21 | -13% | · | -0.4
Cc1ccc(CC(=O)N/N=C/c2ccc3c(c2)OCO3)cc1 | 5% | -3 | 3% | -17 | 2%[15.4 µM] | · | -6.7
O=C(c1cccc(C(F)(F)F)c1)C1CCCN(C(=O)c2cc(C3CC3)[nH]n2)C1 (configuration not stated) | 17% | -6 | -5% | -8 | 31% | -1.5% | -0.5
CC(=O)CSc1nc2c(c(=O)[nH]c(=O)n2C)n1Cc1ccccc1Cl | 7% | ? | -1% | -2 | 4% | · | -1.0
Cc1nn(C)cc1CN(C)S(=O)(=O)c1cccc([N+](=O)[O-])c1 | 9% | -13 | · | -1 | 8%[15.4 µM] | · | -2.3
O=C(Cc1ccc(Cl)cc1)N/N=C/c1c(Cl)cccc1Cl | 6% | -3 | 9% | 4 | -1% | 1.5% | 3.7
